# PrP UTR inh: suppresses PrP 5' UTR mRNA reporter expression. cell-based PrP 5' UTR mRNA reporter, plate reader. 0.35% of 340,000 active. inhibition, % (no concentration beside the values);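 active means every replicate at 50% or more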;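 further: 0 = median of the neutral control wells; tested in H4 reporter cells; numbers are from one replicate; inactives centre near -14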
# BJeLR viability: kills HRASV12-expressing BJeLR cells. 0.17% of 300,000 active. BJeLR (HRASV12) viability, CellTiter-Glo ATP luminescence, 48 h; reference of the scale not given here. AID 1554. inhibition, % (test concentration not listed);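 active means replicate mean above 50%; inconclusive means above 50% but judged a plate artefact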;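 further: 50 nL library stock added to about 25 µL; numbers are from one replicate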
# Mtb hypoxia inh: reduces hypoxia-regulated biosensor signal in M. tuberculosis; M. tuberculosis hypoxia-regulated fluorescent reporter, fluorescence; fluorescence inhibition, % (no concentration beside the values); 0.1% of 300,000 active;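 active means 35 to 45% if threefold the growth effect, above 45% if 1.5-fold the growth effect; inactive means the rest, general growth blockers included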;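 further: wells of about 50 µL received 100 nL stock; 0% = vehicle wells and 100% = reference inhibitor wells; whole bacteria with a GFP reporter of the hypoxia response; strong numbers were not always called active; many hits fall short of the cut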
# Autofluor counter: counter-screen for toxin protease inhibitors: compound fluorescence; compound autofluorescence counterscreen, microsphere flow cytometry; hits give high values; fluorescence intensity (test concentration not listed); 3.1% of 360,000 active; AID 624483;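 active means at least 3 SD above the mean of all compounds, about 16000 in these data; inconclusive means too few beads counted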;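 further: 100 nL of 1 mM stock went into each well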
# Sa RN4220 lethal: kills Staphylococcus aureus RN4220 | S. aureus RN4220 growth, OD600, 16 h | inhibition, % (no concentration beside the values) | 0.33% of 330,000 active | AID 1259311;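 active means z-score of -3 or lower and OD600 up to 0.18 on both plates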;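 further: plate controls were untreated cells for no effect and reference antibiotic for full effect; stock transfer was 100 nL into about 80 µL; one replicate is shown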
# Sa ugtP lethal: kills S. aureus RN4220 lacking UgtP. AID 1259309. growth inhibition, % (no concentration beside the values). S. aureus RN4220 ugtP deletion, OD600 growth, 16 h; some inactives read as strong as hits. 0.54% of 330,000 active;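 active means z-score under -3 and OD600 up to 0.15 on both plates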;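 further: plate controls were untreated wells for no effect and antibiotic for full effect; wells of about 80 µL received 100 nL stock; the first replicate is given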
# Mtb hypoxia inh growth: further read-out of Mtb hypoxia inh, marked with its call; growth inhibition, %; measured here: M. tuberculosis growth (absorbance);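 0% = vehicle and 100% = reference antibiotic; read after six days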
# * marks the source's active call; other numbers are inactive results; ? = inconclusive; · = not tested or not shown.
# The line under a structure holds: PrP UTR inh, BJeLR viability, Mtb hypoxia inh, Mtb hypoxia inh growth, Autofluor counter, Sa RN4220 lethal, Sa ugtP lethal
> CCc1cccc2c(=O)c(C(=O)N3CCCCCC3)c[nH]c12
 : -1, -3, 2, 6, 4095, 2.7, -4
> Nc1nc(Sc2c([N+](=O)[O-])cc(C(F)(F)F)cc2[N+](=O)[O-])n[nH]1
 : -31, 1, 10, 9, 4701, 31, 25
> COc1ccc(C(CNC(=O)CNC(=O)c2cc(OC)c(OC)c(OC)c2)N2CCOCC2)cc1 (stereo not drawn)
 : -4, ·, 6, 5, ·, 5.7, -3
> CCC(Cc1ccccc1)NC(=O)CN1C(=O)CSc2ncccc21 (stereo not drawn)
 : -3, -3, ·, ·, 3935, -1.2, 4
> CC(C)C(=O)Nc1cccc(NC(=S)NC(=O)c2cccs2)c1
 : -22, -3, -4, 3, ?, 1.7, 1
> CCCCOC(=O)C1C2C=C[C@]3(CN(c4ccccc4CC)C(=O)C13)O2 (stereo partly drawn)
 : ·, ·, 5, 0, ·, 4.4, 5
> O=C(COc1ccc(Cl)cc1)Nc1ccc2oc(=O)ccc2c1
 : -4, -7, 5, 3, 5507, 2.5, 1
> CC(=O)Nc1nc(C)c(-c2nc3ccc([N+](=O)[O-])cc3[nH]2)s1
 : -25, -11, 19, 13, 3411, 0.6, 3
> CC1(c2ccccc2)NC(=O)N(CC(=O)NC(=O)NC2CCCC2)C1=O (stereo not drawn)
 : 1, -12, -2, 4, ?, 0.1, 1
> COc1cccc(/C=C/C(=O)OCC(=O)Nc2ccc(Cl)c(S(=O)(=O)N(C)C)c2)c1OC
 : -9, -9, -12, -12, 3347, 3.5, -5
> Cn1c(=O)cc(OCC(=O)NC2CCCCC2)c2ccccc21
 : -29, 1, 14, 7, ?, 3.7, 10
> CCC(Sc1nc2ccncc2[nH]1)C(=O)Nc1ccc(C)c(Cl)c1 (stereo not drawn)
 : -19, -1, -5, -3, 5417, 2.0, -11
> Cc1n(CC(O)COC2CCCCC2)c2ccccc2[n+]1C (stereo not drawn)
 : -23, 9, 8, 6, 3363, 4.0, 0
> O=C(COC(=O)CCCN=C1NS(=O)(=O)c2ccccc21)NNC(=O)c1ccccc1
 : 7, -6, -1, 1, ?, 0.4, 2
> COc1ccc(-c2cc3nc(C)c(CCC(=O)N4CCN(c5ccccn5)CC4)c(C)n3n2)c(OC)c1
 : -7, -2, 3, -5, 2560, 4.1, -1
> O=C(c1cccc(S(=O)(=O)N2CCOCC2)c1)N1CCN(c2ccc(F)cc2)CC1
 : 12, 15, -4, 11, 21227*, 3.4, 6
> N#Cc1c(N2C(=O)Nc3ccccc3N2O)sc2c1CCCC2
 : -22, 6, 1, 6, 2250, -0.5, -2
> CC(C)OCCCNC(=O)c1cn(C)c2ccc(S(=O)(=O)N3CCCC3)cc2c1=O
 : 5, 2, -3, 16, 5563, -0.2, -2
> COc1ccc(NCC(=O)N/N=C/C2CCCCC2)cc1
 : 0, 0, ·, ·, 3261, ·, ·
> Cc1cc(C)c(C#N)c(Sc2nnnn2-c2ccccc2)n1
 : 6, -9, 10, 6, 5908, 24, 1
> CC(C)(C)NC(=O)c1oc2ccccc2c1COc1ccccc1
 : -12, -6, 5, 4, 2347, -7.5, 45
> CCCCNS(=O)(=O)c1ccc(OC)c(Cl)c1Cl
 : -33, 15, 4, 10, 9210, 0.3, -8
> CC(C)(C)NC(=O)C(c1ccncc1)N(C(=O)C1CSC(=O)C1)c1ccccc1 (stereo not drawn)
 : -23, 1, 1, 5, 4071, 2.5, 3
> Cc1cc(O)ccc1NC(=O)c1ccccc1
 : -27, 5, 5, 3, 8160, 2.8, 3
> CCN(CC)S(=O)(=O)c1cc(OC)c(C)cc1C
 : -16, 1, 5, 0, 4373, 8.6, 12
> COc1cc(C(=O)NCCc2ccc(S(N)(=O)=O)cc2)cc(OC)c1OC
 : -15, 1, 12, 3, 11249, 3.8, 6
> CSc1nc(NCc2ccco2)c2ccccc2n1
 : -20, 1, ·, ·, 4023, -3.6, -8
> O=C(COC(=O)/C=C/c1ccc(C(F)(F)F)cc1)NC1CC1
 : -71, 1, -6, -7, ?, -2.7, -4
> CC(C)Cn1c(N)c(C(=O)COC(=O)CCc2nc3ccccc3s2)c(=O)n(C)c1=O
 : -24, -10, 6, 2, 3884, 6.1, 3
> O=C(c1cccc(Cl)c1)N1CCC(N2CCC(C(=O)N3CCCC3)CC2)CC1
 : -24, 6, 0, 7, 7160, 3.7, 7

# Shown in CSV form: part of the list above
smiles,PrP UTR inh,BJeLR viability,Mtb hypoxia inh,Mtb hypoxia inh growth,Autofluor counter,Sa RN4220 lethal,Sa ugtP lethal
CC(C)(C)NC(=O)C(c1ccncc1)N(C(=O)C1CSC(=O)C1)c1ccccc1 (stereo not drawn),-23,1,1,5,4071,2.5,3
Cc1n(CC(O)COC2CCCCC2)c2ccccc2[n+]1C (stereo not drawn),-23,9,8,6,3363,4.0,0
CCC(Cc1ccccc1)NC(=O)CN1C(=O)CSc2ncccc21 (stereo not drawn),-3,-3,·,·,3935,-1.2,4
COc1cc(C(=O)NCCc2ccc(S(N)(=O)=O)cc2)cc(OC)c1OC,-15,1,12,3,11249,3.8,6
O=C(c1cccc(S(=O)(=O)N2CCOCC2)c1)N1CCN(c2ccc(F)cc2)CC1,12,15,-4,11,21227*,3.4,6

# (more compounds)
# The line under a structure holds: PrP UTR inh, BJeLR viability, Mtb hypoxia inh, Mtb hypoxia inh growth, Autofluor counter, Sa RN4220 lethal, Sa ugtP lethal
> Cc1c(N=Nc2ccc(O)cc2)c(=O)n(-c2ccccc2)n1C
 : -28, 6, 2, -2, 4503, 10.0, 4
> COc1ccccc1N(C)S(=O)(=O)c1ccc(C(=O)NC(C)(C)C)cc1
 : -4, -3, ·, ·, 4150, 4.5, 1
> CCOc1ccc(CNC(=O)c2ccc(NC(=O)C3=CSCCO3)cc2)cc1
 : -25, -8, -3, -1, 5008, -0.5, 3
> COc1ccc(C(C)=O)cc1Cn1nc(C)c([N+](=O)[O-])c1C
 : 3, 4, 4, 2, 3180, -0.4, 11
> CNc1nc(-c2ccc3c(c2)CCN3C(=O)c2ccccc2F)cs1
 : -123, 11, -8, -3, 4490, -1.8, -19
> COC(=O)C(Cc1ccccc1)C(C)OS(N)(=O)=O (stereo not drawn)
 : ·, ·, -2, 6, ·, 4.1, 2
> CN(C(=O)N1CCN(c2ccccn2)CC1)c1ccccc1
 : -5, 8, 25, -33, 3633, 0.4, 4
> CC(C)CCOc1cccc(OCC(=O)O)c1
 : -30, -1, 0, 6, 4124, -0.8, -8
> COc1ccc(OCC(O)CN(C)C(=O)C(C)Oc2ccccc2)cc1 (stereo not drawn)
 : -15, -3, -4, 8, 2930, 1.3, -6
> O=C(NCC1CCCO1)C(c1cccs1)N(C(=O)Cn1nnc(-c2cccs2)n1)C1CCCC1 (stereo not drawn)
 : 0, -6, -1, 3, 3462, 7.2, 9
> Cc1ccc2oc(C(=O)N(C)Cc3cnccn3)c(C)c2c1
 : -19, -4, 3, 7, 5772, -1.2, -1
> COc1ccc(S(=O)(=O)NCCCN2CCCC2=O)c(OC)c1
 : -8, -7, -6, -6, 6134, 0.6, 2
> COCCSc1ccccc1C(=O)NCCCn1ccnc1
 : -26, 13, 1, 3, 10772, -4.7, -3
> CC(=O)OCC(=O)[C@@]1(O)CC[C@H]2[C@@H]3CCC4=CC(=O)CC[C@]4(C)[C@H]3C(=O)C[C@@]21C
 : -14, 1, ·, ·, 5601, ·, ·
> Fc1ccccc1N1CCN(C2CCCN(Cc3cccc(C(F)(F)F)c3)C2)CC1 (stereo not drawn)
 : -11, 13, -2, -1, 4613, -0.7, 13
> O=C(NCc1cccnc1)NC1CCCN1S(=O)(=O)c1ccc(Cl)cc1 (stereo not drawn)
 : -5, -3, 6, 6, 3659, -11, -4
> O=C(CNS(=O)(=O)c1cccc(Cl)c1)OCc1csc(-c2ccccc2)n1
 : -16, -7, ·, ·, 2540, ·, ·
> CCOC(=O)CN(C(=O)CSc1nnc(C)n1-c1ccccc1)c1cccc([N+](=O)[O-])c1
 : -3, -6, 3, 3, 7967, 2.3, 6
> COc1ccccc1/C=N/N1CCN(Cc2ccccc2Cl)CC1
 : -9, -5, ·, ·, 3227, ·, ·
> O=C(Nc1ccc(N2CCOCC2)nc1)c1ccccc1Cl
 : -53, -6, -5, 2, 3135, 0.0, 0
> Cc1cccn2c(=O)c(/C=C(\C#N)S(=O)(=O)c3ccccc3)c(Oc3ccc(Cl)cc3)nc12
 : -22, 4, -2, 1, 2243, 7.0, 8
> CC(C)OCCCNc1ncnc2c1cnn2-c1ccccc1
 : -40, 1, ·, ·, 2435, 3.1, 11
> Cc1ccc2c(=O)cc(C(=O)NCCc3ccc(S(N)(=O)=O)cc3)oc2c1
 : -13, -6, -10, 8, 4067, 2.9, -1
> CCc1ccc(C(=O)NNC(=O)c2n[nH]c(=O)c3ccccc23)cc1
 : -17, ·, 4, 8, 4024, 1.4, 2
> COc1ccc(C)cc1NC(=O)C(c1ccccc1)N1CCNC(=O)C1 (stereo not drawn)
 : 12, -28, 6, -4, 4379, -4.6, 0
> CCC(C)(C)C1CCC2(CC1)NC(CO)(CO)CO2 (stereo not drawn)
 : -10, 0, 10, 4, 2377, -13, -3
> C=Cc1ccc2c(c1)N(C)C(=C)S2
 : -12, -3, -3, 2, 4711, 0.8, 17
> Cc1ccc(Nc2nc(C(=O)N3CCC(C(=O)N4CCN(C)CC4)CC3)cs2)cc1
 : -4, 6, 12, 7, 15332, 6.3, 12
> Cc1ccc2c(c1)NCC(C(=O)NC1CCC(C)CC1)O2 (stereo not drawn)
 : -26, 2, 10, 3, 5634, 3.8, 13
> CCC(=NCCc1c[nH]c2ccccc12)c1c(O)n(-c2ccc(C)cc2)c(=O)[nH]c1=O
 : 8, -9, 2, 4, 2098, 8.7, 0

# Some of these compounds in order of length of the SMILES, largest number first:
# The line under a structure holds: PrP UTR inh, BJeLR viability, Mtb hypoxia inh, Mtb hypoxia inh growth, Autofluor counter, Sa RN4220 lethal, Sa ugtP lethal
> CCOC(=O)CN(C(=O)CSc1nnc(C)n1-c1ccccc1)c1cccc([N+](=O)[O-])c1
 : -3, -6, 3, 3, 7967, 2.3, 6
> Fc1ccccc1N1CCN(C2CCCN(Cc3cccc(C(F)(F)F)c3)C2)CC1 (stereo not drawn)
 : -11, 13, -2, -1, 4613, -0.7, 13
> CCc1ccc(C(=O)NNC(=O)c2n[nH]c(=O)c3ccccc23)cc1
 : -17, ·, 4, 8, 4024, 1.4, 2

# Next section.
# The line under a structure holds: PrP UTR inh, BJeLR viability, Mtb hypoxia inh, Mtb hypoxia inh growth, Autofluor counter, Sa RN4220 lethal, Sa ugtP lethal
> COC(=O)C1=C(C)NC(=O)NC1c1cn(-c2ccccc2)nc1-c1cccs1 (stereo not drawn)
 : -6, 6, 12, 8, 2886, 7.6, 2
> CN1CCN(S(=O)(=O)c2ccc(NC(=O)c3ccc(Br)s3)cc2)CC1
 : -27, 5, 0, 1, 8381, 1.9, 1
> C=CCOc1ccc(/C=C(\C#N)C(=O)Nc2ccccn2)cc1OC
 : -22, -2, 15, 2, 4458, 4.8, 8
> COc1ccc(/C=C/C(=O)Nn2cnnc2)cc1
 : -22, 8, 6, -6, 1985, 1.7, 13
> COC(=O)C(NCc1cccc(CNC(C(=O)OC)c2ccccc2)c1)c1ccccc1 (stereo not drawn)
 : ·, ·, 7, 8, ·, 4.8, -11
> Cc1ccccc1NC(=O)CSc1nnc(C2CC2)n1CC1CCCO1 (stereo not drawn)
 : -18, -11, 8, 5, 5112, 0.8, 10
> Cc1[nH]c2ccccc2c1-c1nc2ccccc2[nH]c1=O
 : -20, -7, 1, -3, 4273, -1.1, -7
> CCCS(=O)(=O)c1c(S(=O)(=O)CCC)c2cnccn2c1C(=O)c1ccc(OC)cc1
 : -26, -3, -3, -5, 3874, 2.4, 15
> Cc1ccc(/C(O)=C2/C(=O)C(=O)N(CCCn3ccnc3)C2c2ccccn2)cc1 (stereo not drawn)
 : ·, 3, 1, 6, ·, -2.2, -2
> COc1ccc(CCC(=O)NC2CCCc3ccccc32)cc1OC (stereo not drawn)
 : -22, 0, 8, 10, 3929, 2.2, 7
> CC(OC(=O)c1ccc(Cl)c(S(=O)(=O)N2CCOCC2)c1)C(=O)NC1CCCCC1C (stereo not drawn)
 : -11, -14, 4, -2, 4395, 2.8, -5
> OCCC1CN(Cc2ccc(Oc3ncccn3)cc2)CCN1C1CCCCC1 (stereo not drawn)
 : -21, 13, 3, -1, 6362, 3.2, 0

# Compound activity deposited in PubChem BioAssay by several laboratories.
